PINK1 modulator – modulators of PINK1 expression. 410,000 compounds, 0.2% hits. Potency, µM (highest dose often 76.6 µM), for inactives: at the top dose activation (PINK1 increase), hits mostly activators. PINK1 immunofluorescence, high-content cytometry, 24 h; active = well fitted activation curve with a large enough effect; inconclusive = small, poorly fitted or top-dose-only effect; inactive = flat fitted curve, though single readings scatter; cell line not stated here;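 also: potency is read from the fitted curve at half-maximal effect; % of control where 0% means no effect; nearly all actives have a fitted effect of over 65% in size; a mitochondrial uncoupler was the plate control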
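PINK1 protein level read as immunofluorescence by microplate cytometer in a fixed, stained stable cell line after 24 h exposure to five compound concentrations, with CCCP as control.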
D2 agonist – activates the human D2 dopamine receptor; P14416; DiscoveRx PathHunter D2 beta-arrestin, luminescence, 90 min; 100% = 57 uM dopamine signal; activation, % (test concentration not listed); 360,000 compounds, 0.084% hits; in the data active = activation above about 40%; inconclusive = about 15% to 40%; inactive = below about 15%; also: compound concentration not given in the record; the text of the record calls up to 30% inactive
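Agonist mode: compounds alone added to overnight-plated D2 PathHunter cells for 90 min at 37 C, with 57 uM final dopamine (EC100) defining full response. Beta-arrestin recruitment detected by chemiluminescent reagent, read after 1 h at ambient temperature.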
D2 PAM – human D2 receptor positive allosteric modulation. DiscoveRx D2 beta-arrestin cells, luminescence, 90 min; 100% = 57 uM dopamine signal. potentiation, % (no concentration beside the values). 360,000 compounds, 0.23% hits; active = potentiation of 50% or more; inconclusive = 30% to 50%; inactive = 30% or less;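 also: compound concentration not given in the record; tested on top of an EC20 dose of dopamine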
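PathHunter D2 cells, attached overnight at 37 deg C, received compound in DMSO plus dopamine at EC20 (50 nM final) for 90 min at 37 deg C. Beta-arrestin recruitment was read as luminescence after 1 h with detection reagent at ambient temperature.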
Six1-Eya2 blk – inhibitors of human Six1/Eya2 interaction; AID 651725; activity change, % (no concentration beside the values); AlphaScreen GST-Six1/His-Eya2 binding, biochemical; hits give low values; control for the full effect not named in the record; Q15475+O00167; 360,000 compounds, 0.56% hits; in the data active = activity change below about -65%; inconclusive = about -30% to -65%; inactive = above about -30%; also: % is scaled to controls: 0 for no effect and ±100 for the full control effect
Target sequence (O00167 whole entry, looked up): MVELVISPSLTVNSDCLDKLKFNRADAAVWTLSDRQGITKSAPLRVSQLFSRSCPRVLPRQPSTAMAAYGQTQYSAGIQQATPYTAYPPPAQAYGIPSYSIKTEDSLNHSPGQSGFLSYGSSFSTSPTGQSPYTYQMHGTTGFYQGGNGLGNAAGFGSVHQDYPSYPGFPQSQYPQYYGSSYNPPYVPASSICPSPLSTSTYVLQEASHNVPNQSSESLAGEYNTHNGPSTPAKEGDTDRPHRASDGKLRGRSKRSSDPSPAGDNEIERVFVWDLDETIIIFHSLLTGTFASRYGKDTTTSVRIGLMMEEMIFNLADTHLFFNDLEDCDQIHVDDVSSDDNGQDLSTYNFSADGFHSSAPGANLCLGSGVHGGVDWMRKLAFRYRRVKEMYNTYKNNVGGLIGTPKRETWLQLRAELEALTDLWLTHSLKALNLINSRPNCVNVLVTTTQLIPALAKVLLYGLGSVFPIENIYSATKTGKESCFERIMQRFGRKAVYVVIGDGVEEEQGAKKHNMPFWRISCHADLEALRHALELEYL
Target sequence (Q15475 whole entry, looked up): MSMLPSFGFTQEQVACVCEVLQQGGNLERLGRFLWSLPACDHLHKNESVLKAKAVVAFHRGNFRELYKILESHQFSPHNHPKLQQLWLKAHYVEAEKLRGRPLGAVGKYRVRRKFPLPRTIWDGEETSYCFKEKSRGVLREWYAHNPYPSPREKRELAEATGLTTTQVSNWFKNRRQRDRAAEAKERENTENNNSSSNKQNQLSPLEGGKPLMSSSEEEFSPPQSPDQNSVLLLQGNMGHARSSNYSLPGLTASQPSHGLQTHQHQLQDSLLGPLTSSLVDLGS
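Homogeneous AlphaScreen proximity assay pairing GST-Six1 with His-tagged Eya2 (added as 5X mix: 250 nM and 500 nM) in 50 mM Tris pH 8.0, 300 mM NaCl, 1 mM TCEP. Glutathione donor and nickel acceptor beads; 1 h, 37 °C, dark.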
TRPV1 PAM – potentiators of human vanilloid receptor 1 (TRPV1). Q8NER1. TRPV1-expressing cells, Fluo-8 calcium influx, capsaicin EC20 potentiation; host cell line not named in the record; control for the full effect not named in the record. potentiation, % at 8.33 µM. 320,000 compounds, 0.02% hits; active means potentiation above 80%; inconclusive means 30% to 80%; inactive means below 30%; also: 0% is about no effect
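TRPV1-expressing cells were cultured overnight at 35.5C and loaded with Fluo-8 calcium dye for 40 to 90 min at room temperature. After a 10 s baseline, compound was added and calcium influx was read kinetically for 3 min (ex 480/em 520 nm).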
Sfp inh – inhibitors of Bacillus subtilis Sfp phosphopantetheinyl transferase | Biochemical Sfp PPTase activity, qHTS | Potency, µM, inactives show max response, negative = inhibition, usual class: inhibitors | 310,000 compounds, 3.5% hits; active = well fitted inhibition curve with a large enough effect; inconclusive = small, poorly fitted or top-dose-only effect, or another doubt; inactive = no such curve, though single readings can be large or run the other way;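 also: the enzyme is Sfp with the accession as filed and its product quenches rhodamine fluorescence; potency is read from the fitted curve at half-maximal effect; 0% = enzyme reaction without inhibitor and -100% = no enzyme wells; top concentration of the series not given in the record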
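Reaction rates are the 30-min fluorescence difference (ex 525, em 598 nm) in wells containing 15 nM Sfp, 5 uM rhodamine-CoA and 12.5 uM BHQ-2-YbbR at pH 7.6 with 10 mM MgCl2.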
CtBP-E1A inh – blocks the CtBP interaction with E1A | AlphaScreen GST-E1A/His-CtBP binding, 1536-well; hits give low values; control for the full effect not named in the record | 340,000 compounds, 0.49% hits | activity change, % (concentration not given with the values); in the data active means activity change below about -65%; inconclusive means about -30% to -65%; inactive means above about -30%; also: % is scaled to controls: 0 for no effect and ±100 for the full control effect
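Steps: dispense buffer (Tris pH 8.0, NaCl 300 mM, TCEP 1 mM, BSA, Tween 20); add 5X protein mix (GST-E1A, His-CtBP, 125 nM each); pin 23 nL compound; 2 h at 37 °C, dark; add 5X beads (50 ug/mL); 1 h; read.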
Active calls of the source: *; u = inconclusive; x = no result given; [ ] = another dose, or the depositor's remark.

SMILES | PINK1 modulator | D2 agonist | D2 PAM | Six1-Eya2 blk | TRPV1 PAM | Sfp inh | CtBP-E1A inh
CCOc1ccc(-n2c(SCC(=O)Nc3nccs3)nnc2-c2ccoc2C)cc1 | 0.3% | 2.9 | -6 | -3 | -8 | 7% | -14
CSc1ccc(S(=O)(=O)N2CCC(C(=O)Nc3ccccc3C(F)(F)F)CC2)cc1 | 18% | 0.0 | -2 | 11 | -8 | 6% | 5
O=C(Cc1ccc(Br)cc1)N1CCOCC1 | 0.9% | 8.1 | -2 | 6 | 8 | 20% | 7
O=C(CN1CCOCC1)Nc1scc2c1c(=O)oc1ccccc12 | -0.1% | -1.0 | -2 | 2 | -8 | -3% | 0
CCCOc1cccc(C2C(C(=O)c3cccs3)=C(O)C(=O)N2Cc2cccnc2)c1 (centres undefined) | 1.8% | 2.1 | -1 | 2 | u | -2% | -2
CCn1nnnc1SCC(=O)N1CCN(c2ccccc2)CC1 | 12% | -4.3 | -17 | -5 | 16 | 2% | x
Cc1c(C(=O)N2CCCCC2)oc2ccc(S(=O)(=O)N3CC(C)CC(C)C3)cc12 (centres undefined) | 0.5% | -1.5 | -1 | -10 | u | -11% | 0
O=C1[C@@H]2C(c3ccc(F)cc3)=NO[C@@H]2C(=O)N1Cc1ccccc1 | 0.2% | -2.3 | -3 | -1 | x | 5% | -10
CC1CCN(C(=O)CSc2nc3ccccc3c(=O)n2Cc2ccc3c(c2)OCO3)CC1 | 0.5%[38.3 µM] | -1.9 | -13 | -8 | -3 | -2% | -14
Cc1ccccc1NC(=O)C12CC3CCC1(C)C3(C)CO2 (centres undefined) | 0.9% | -1.3 | -2 | 6 | -6 | -11% | 1
C(=C\c1nc2ccccc2[nH]1)/c1ccccc1 | 1.8% | 0.8 | -12 | 6 | -20 | -21% | -6
CCCCC(=O)Nc1nnc(S(=O)(=O)N(CC)c2ccc(OC)cc2)s1 | -1.1% | 5.6 | -2 | -8 | 7 | 16% | 0
Cc1ccc(NC(=O)Cc2ccc(Cl)c(Cl)c2)cc1S(=O)(=O)N(C)C | u | -0.6 | -9 | -1 | 5 | -6% | -3
CCOc1c(CNCCNC(=O)c2nonc2N)cccc1OC | x | 0.1 | -20 | 6 | 1 | 14% | 12
Cc1ccc(S(=O)(=O)CCC(=O)c2ccc(O)cc2O)cc1 | 7.6% | -1.1 | -5 | 8 | -1 | -11% | 3
COc1ccc(S(=O)(=O)N(C)c2ccccc2)c2cccnc12 | 0.3% | 0.6 | 1 | -3 | -10 | 1% | -13
CC(C)(C)N(Cc1ccccc1)C(=O)COC(=O)C1CCCCC1 | 9.1% | -1.8 | -1 | 7 | x | x | 15
CCOc1ccc2nc(SCC(=O)NCC3CCCO3)sc2c1 (centres undefined) | 0.6% | -1.8 | -7 | 9 | x | x | 0
COc1ccc(S(=O)(=O)Cc2ccc(C(=O)N3CCC(C(N)=O)CC3)o2)cc1 | 0.4% | -7.8 | -8 | -5 | x | 6% | 3
COC(=O)c1cc(OC)c(OC)cc1NC(=O)c1ccco1 | 0.3% | 1.5 | -3 | u | -4 | -11% | u
CCOc1ccc(/C(O)=C2/C(=O)C(=O)N(c3ccccn3)C2c2ccc(Cl)cc2)c(C)c1 (centres undefined) | -0.1% | -0.8 | -10 | 6 | 25 | -13% | -15
OC(c1cccc(Cl)c1)c1nc(-c2ccc(F)c(Cl)c2)cs1 (centres undefined) | 18% | 2.6 | -1 | 9 | x | x | 14
CCn1cc(C(=O)OCC(=O)Nc2cc(S(=O)(=O)N(C)C)ccc2C)c(=O)c2ccc(C)nc21 | -1.8% | -2.5 | -31 | -5 | -9 | 19% | -7
Cc1cc(C)n(-c2cc(-c3ccccc3)nc(C)n2)n1 | 14% | -3.2 | 3 | 23 | 4 | 13% | 0
Nn1c(SCC(=O)Nc2nccs2)nncc1=O | 1.0% | 1.3 | -23 | -17 | -7 | 22µM* | -24
O=C(NC1=NCCS1)c1ccc(Cl)s1 | -4.6%[38.3 µM] | -1.1 | -7 | -1 | 5 | 16% | -19
CNc1nc(SC)nc(N(C#N)CC(=O)OC)n1 | -0.3% | -2.1 | -5 | -12 | -3 | 6% | -9
C=C(C)C1CC=C(CN2CC(C)OC(C)C2)CC1 (centres undefined) | 0.8% | -1.5 | -27 | -3 | -12 | u | 1
COc1ccc(-c2noc(CSc3nnc(-c4ccncc4)n3-c3ccc(F)cc3)n2)cc1OC | 4.3%[38.3 µM] | 1.3 | -23 | -2 | -3 | 9% | 7
CCN(CC(=O)Nc1ccc(NC(C)=O)cc1)C(=O)COc1ccc(C(=O)c2ccccc2)cc1 | -0.6% | 1.1 | -8 | 3 | -1 | 17% | 4

Profiles from above.
`Cc1ccc(NC(=O)Cc2ccc(Cl)c(Cl)c2)cc1S(=O)(=O)N(C)C` is listed as PINK1 modulator = u; D2 agonist = -0.6; D2 PAM = -9; Six1-Eya2 blk = -1; TRPV1 PAM = 5; Sfp inh = -6%; CtBP-E1A inh = -3
`CCn1nnnc1SCC(=O)N1CCN(c2ccccc2)CC1` is listed as PINK1 modulator = 12%; D2 agonist = -4.3; D2 PAM = -17; Six1-Eya2 blk = -5; TRPV1 PAM = 16; Sfp inh = 2%; CtBP-E1A inh = x

Next part.
SMILES | PINK1 modulator | D2 agonist | D2 PAM | Six1-Eya2 blk | TRPV1 PAM | Sfp inh | CtBP-E1A inh
O=C(Nc1ccccc1)c1cnc2n(c1=O)CCS2 | -0.3% | -3.5 | -6 | 9 | -3 | 4% | -19
N#Cc1ccc(Cl)cc1NC(=O)CSc1cccc[n+]1[O-] | 1.1% | -3.0 | 0 | 23 | x | x | 0
COc1cc(-c2nnc3n(CCc4ccccc4)c(=O)c4ccccc4n23)cc(OC)c1OC | 6.2% | -1.4 | -15 | -2 | 14 | -9% | 0
CCN(CC)S(=O)(=O)c1cc(NC(=O)CCn2[nH]c(=O)ccc2=O)ccc1C | 1.8% | -3.3 | -5 | -2 | x | x | -1
COc1ncccc1-c1cnc2cccnn12 | -0.1% | -3.0 | -3 | 27 | x | x | -6
COc1ccc(Br)cc1CN(C)C(=O)C1=CC=CN2CCS(=O)(=O)N=C12 | 0.4% | -2.1 | -1 | 8 | x | x | 3
COc1cccc(NC(=O)Cn2nnc(C(=O)Nc3cc(Cl)ccc3OC)c2N)c1 | 15% | 5.5 | -1 | -1 | 1 | 0% | x
Cc1ccc2nc(-c3ccccc3)cc(C(=O)NCC3CCCO3)c2c1 (centres undefined) | 0.7% | 3.7 | -6 | 2 | -32 | 0% | 0
COc1ccccc1NC(=O)/C(C#N)=C/c1ccncc1 | -1.3% | 1.0 | 2 | 2 | 1 | 7% | 12
COc1ccc(S(=O)(=O)Nc2ccccc2C(=O)NC(C)(C)C)cc1OC | 3.9%[38.3 µM] | -1.7 | 0 | 3 | -9 | 17% | 8
C=C(C(=O)c1ccccc1)C(C)C(=C)C(=O)c1ccccc1 | 12% | -4.2 | -14 | 4 | -8 | 11% | 6
O=C(CSc1ncnc2ccccc12)Nc1cc(S(=O)(=O)N2CCCCC2)ccc1Cl | -0.5% | -7.0 | -14 | -11 | 1 | 8% | -2
CCCN(CC1CC1)C(=O)COC(=O)c1ccc(C)cc1O | -0.7% | -1.7 | -25 | 13 | x | x | -5
Cc1ccc2[nH]c3c(c2c1)CN(C(=O)CN1CCN(Cc2ccc4c(c2)OCO4)CC1)CC3 | -1.8% | 7.0 | -40 | -21 | -17 | -17% | -16
CCOC(=O)c1nn(-c2ccc(C)c(Cl)c2)c(=O)c(C#N)c1C | 8.7% | u | -1 | 1 | -4 | 8% | 3
COc1nc(-c2ccc(Cl)cc2)ccc1-c1noc(-c2ccco2)n1 | 12% | -4.0 | 14 | 7 | -36 | -2% | 4
CCOc1ccccc1-n1c(SCC(=O)N2CCCC2)nnc1-c1ccc(O)cc1 | x | -0.4 | -3 | 2 | -15 | -13% | 9
CC1CCCN(S(=O)(=O)c2ccc(C(=O)Nc3nnc(-c4ccco4)o3)cc2)C1 (centres undefined) | 0.6% | 4.0 | -4 | u | 9 | -2% | 0
COc1cc2[nH]c(=O)n(Cc3ccc(C(=O)NC4CCCC4)cc3)c(=O)c2cc1OC | 17% | -1.5 | 3 | -1 | -2 | 23% | -1
NC(=O)C(c1cccc(Cl)c1)c1ncc(C(F)(F)F)cc1Cl (centres undefined) | -1.5% | -0.4 | -3 | 0 | 3 | 31%[activator] | -9
CC(C)(C)NC(=O)COc1ccc(CNCc2cccnc2)cc1 | 0.8% | -6.6 | -23 | u | -2 | 4% | 0
N#CCSc1nc2cc(C(=O)N3CCC(C(N)=O)CC3)ccc2c2nc3ccccc3n12 | 3.4% | -1.4 | -6 | -9 | 10 | 11% | -19
CCOc1ccccc1N1CCN(C(=O)CC(C)(C)C)CC1 | 1.3% | -0.5 | -4 | 6 | -6 | 18% | 11
O=C(Cc1ccccc1)Nc1ccc(NC(=O)c2cccc(Cl)c2)cc1 | u | 0.7 | -4 | -2 | -3 | 5% | -6
COc1ccc(-c2oc(=O)c3cc(OC)c(OC)cc3c2-c2cc(F)cc(OC)c2)cc1 | 0.7% | -1.1 | -7 | 3 | -4 | x | 0
CC(C)[C@H](NC(=O)c1ccccc1)C(=O)OCC(=O)NCc1ccc(F)cc1 | 0.1% | -9.7 | -5 | 6 | -8 | 14% | 2
C[C@@H]1CN([C@H](C)CO)C(=O)c2cc(NC(=O)Cc3cn(C)c4ccccc34)ccc2O[C@H]1CN(C)S(=O)(=O)c1ccc(F)cc1 | -1.3% | 2.7 | -17 | -6 | x | x | u
COc1ccc([C@@H]2C[C@H]3[C@@H](CN2S(=O)(=O)c2ccccc2)C(=O)C[C@@H](c2cccc4ccccc24)N3S(=O)(=O)c2ccc(C)cc2)cc1 | -0.3% | -8.5 | 3 | -1 | x | x | 3
COc1cc(-c2ccc3oc(-c4ccsc4)cc3c2)cc(OC)c1OC | 4.7% | 0.1 | -10 | 9 | x | x | -23
N#Cc1c(-c2cccs2)cc(-c2cccs2)[nH]c1=O | 3.2% | -0.9 | -14 | -8 | 5 | -30% | 9
O=C(Cn1cnc2c(NCc3ccccc3)ncnc21)NCc1nc2ccccc2[nH]1 | -0.8% | -2.8 | 1 | 3 | x | x | 1
COc1cccc(C2=NOC(C(=O)Nc3cccnc3Cl)C2)c1OC (centres undefined) | -0.5% | 2.3 | -6 | 0 | u | 6% | 12
COc1ccc(NC(=O)Nc2ccc3c(c2)C(=O)N([C@H](C)CO)C[C@H](C)[C@@H](CN(C)C(=O)Nc2c(C)noc2C)O3)cc1 | 1.4% | -1.9 | -1 | -4 | x | x | 18

Assay outcomes: PubChem BioAssay, National Center for Advancing Translational Sciences (NCATS)
